PINK1 modulator = A Quantitative High throughput Screen to Identify Chemical Modulators of PINK1 Expression | PINK1 immunofluorescence, high-content cytometry, 24 h | Potency, µM (top dose mostly 76.6 µM), for inactives: at the top dose activation (PINK1 increase), most hits filed as activators | 0.2% of 410,000 active | AID 624263, 2012; active = well fitted activation curve with a large enough effect; inconclusive = small, poorly fitted or top-dose-only effect; inactive = flat fitted curve, though single readings scatter; cell line not stated here;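 further: potency means the concentration at half of the fitted maximal effect; % of control where 0% means no effect; nearly all actives have a fitted effect of over 65% in size; a mitochondrial uncoupler was the plate control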
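Stable cell line, 250 cells/well, 12 h attachment; compounds pinned at 5 concentrations, 24 h; CCCP control. Fixed with nuclear dye, primary antibodies 12 h at 10 degrees C, secondary plus cell stain; laser-scanning cytometer read.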
TRPV1 PAM = HTS Assay for Compounds that Act as Potentiators of the Vanilloid Receptor 1. AID 540277, 2011. potentiation, % at 8.33 µM. 0.02% of 320,000 active. TRPV1-expressing cells, Fluo-8 calcium influx, capsaicin EC20 potentiation; host cell line not named in the record; control for the full effect not named in the record; active means potentiation above 80%; inconclusive means 30% to 80%; inactive means below 30%; further: 0% is about no effect
Target sequence (Q8NER1 whole entry, looked up): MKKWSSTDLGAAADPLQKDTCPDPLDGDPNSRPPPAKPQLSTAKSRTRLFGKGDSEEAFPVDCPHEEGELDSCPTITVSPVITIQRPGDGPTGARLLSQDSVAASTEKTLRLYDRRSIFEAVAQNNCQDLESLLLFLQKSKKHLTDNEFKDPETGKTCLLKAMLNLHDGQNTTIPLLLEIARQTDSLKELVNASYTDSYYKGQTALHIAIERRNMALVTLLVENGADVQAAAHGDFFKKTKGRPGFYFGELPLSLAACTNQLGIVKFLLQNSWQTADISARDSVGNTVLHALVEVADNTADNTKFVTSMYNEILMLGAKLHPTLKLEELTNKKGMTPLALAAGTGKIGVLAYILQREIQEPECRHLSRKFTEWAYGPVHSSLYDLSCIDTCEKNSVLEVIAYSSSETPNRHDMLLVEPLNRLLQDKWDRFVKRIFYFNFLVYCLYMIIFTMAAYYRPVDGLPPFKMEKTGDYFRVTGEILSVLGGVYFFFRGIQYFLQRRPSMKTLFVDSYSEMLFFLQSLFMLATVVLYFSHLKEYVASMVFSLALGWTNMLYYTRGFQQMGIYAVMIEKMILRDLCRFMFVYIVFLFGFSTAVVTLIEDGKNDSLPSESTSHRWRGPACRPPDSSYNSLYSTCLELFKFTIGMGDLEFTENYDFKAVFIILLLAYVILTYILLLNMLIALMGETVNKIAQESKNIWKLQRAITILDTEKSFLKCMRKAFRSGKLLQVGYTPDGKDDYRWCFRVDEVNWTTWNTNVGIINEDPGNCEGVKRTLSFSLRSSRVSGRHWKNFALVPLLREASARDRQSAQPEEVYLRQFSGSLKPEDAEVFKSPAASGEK
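Fluo-8 calcium influx in TRPV1-expressing cells, kinetic read (ex 480/em 520 nm). Compound added and read 3 min for agonist activity, followed by capsaicin at EC20 final and 2 min further read for enhancement.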
D2 PAM = Beta-Arrestin HTS for Positive Allosteric Modulators of the Human D2 Dopamine Receptor: Potentiators. D(2) dopamine receptor (Homo sapiens), P14416. DiscoveRx D2 beta-arrestin cells, luminescence, 90 min; 100% = 57 uM dopamine signal. potentiation, % (no concentration beside the values). 0.23% of 360,000 active. AID 624464, 2012; active = potentiation of 50% or more; inconclusive = 30% to 50%; inactive = 30% or less;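 further: compound concentration not given in the record; tested on top of an EC20 dose of dopamine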
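PathHunter D2 cells, attached overnight at 37 deg C, received compound in DMSO plus dopamine at EC20 (50 nM final) for 90 min at 37 deg C. Beta-arrestin recruitment was read as luminescence after 1 h with detection reagent at ambient temperature.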
CtBP-E1A inh = qHTS Assay for Inhibitors of the CtBP/E1A Interaction; activity change, % (no concentration beside the values); CtBP / adenovirus E1A interaction (AlphaScreen); AlphaScreen GST-E1A/His-CtBP binding, 1536-well; hits give low values; control for the full effect not named in the record; 0.49% of 340,000 active; in the data active means activity change below about -65%; inconclusive means about -30% to -65%; inactive means above about -30%; further: on the % scale 0 is the no-effect control and ±100 the full control effect; compound concentration not given in the record
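In 5 uL wells, 23 nL compound meets equimolar GST-E1A and His-CtBP (5X stock 125 nM each) for 2 h, 37 °C. Beads (5X, 50 ug/mL) then 1 h, 37 °C, dark.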
Sfp inh = qHTS Assay for Inhibitors of Bacillus subtilis Sfp phosphopantetheinyl transferase (PPTase); 4'-phosphopantetheinyl transferase ffp (Bacillus subtilis), Q9F4F7; Biochemical Sfp PPTase activity, qHTS; Potency, µM, for the others: max response, negative = inhibition, usual class: inhibitors; 3.5% of 310,000 active; AID 1490, 2009; active means well fitted inhibition curve with a large enough effect; inconclusive means small, poorly fitted or top-dose-only effect, or another doubt; inactive means no such curve, though single readings can be large or run the other way;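 further: the enzyme is Sfp with the accession as filed and its product quenches rhodamine fluorescence; potency means the concentration at half of the fitted maximal effect; 0% = enzyme reaction without inhibitor and -100% = no enzyme wells; top concentration of the series not given in the record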
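Sfp 15 nM + cpd, 15 min RT; start w/ rhodamine-CoA 5 uM, BHQ-2-YbbR 12.5 uM (final); 50 mM Hepes pH 7.6, 10 mM MgCl2, 0.01% NP-40, 0.01% BSA; read 525/598 nm at 0 and 30 min.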
Six1-Eya2 inh = qHTS Assay for Inhibitors of the Six1/Eya2 Interaction. Homeobox protein SIX1 (Homo sapiens) + Protein phosphatase EYA2 (Homo sapiens), …. AlphaScreen GST-Six1/His-Eya2 binding, biochemical; hits give low values; control for the full effect not named in the record. activity change, % (concentration not given with the values). 0.56% of 360,000 active; in the data active = activity change below about -65%; inconclusive = about -30% to -65%; inactive = above about -30%; further: on the % scale 0 is the no-effect control and ±100 the full control effect
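Six1/Eya2 binding was read as AlphaScreen signal after compounds were pinned into GST-Six1 plus His-tagged Eya2 (5X stock 250/500 nM) in pH 8.0 Tris/NaCl/TCEP buffer, beads added, then incubated 1 h, 37 C, dark.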
D2 agonist = Beta-Arrestin HTS for Positive Allosteric Modulators of the Human D2 Dopamine Receptor: Agonists. D(2) dopamine receptor (Homo sapiens), P14416. DiscoveRx PathHunter D2 beta-arrestin, luminescence, 90 min; 100% = 57 uM dopamine signal. activation, % (concentration not given with the values). 0.084% of 360,000 active. AID 624465, 2012; in the data active = activation above about 40%; inconclusive = about 15% to 40%; inactive = below about 15%; further: compound concentration not given in the record; the text of the record calls up to 30% inactive
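Agonist mode: compounds alone added to overnight-plated D2 PathHunter cells for 90 min at 37 C, with 57 uM final dopamine (EC100) defining full response. Beta-arrestin recruitment detected by chemiluminescent reagent, read after 1 h at ambient temperature.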
Active calls of the source: *; ? = inconclusive; . = no result given; & = joins results of further samples; [ ] = dose if it differs, or a comment.

SMILES | PINK1 modulator | TRPV1 PAM | D2 PAM | CtBP-E1A inh | Sfp inh | Six1-Eya2 inh | D2 agonist
COC(=O)c1cc(OC)c(OC)cc1NC(=O)c1cc(C(C)(C)C)oc1C | 3.2% | -3 | -2 | 18 | 15% | -2 | -4.5
COc1ccc(-n2nc3c(c2NC(=O)c2ccc(S(=O)(=O)N4CCOCC4)cc2)CS(=O)(=O)C3)cc1 | 1.7% | -4 | -3 | 0 | 14% | 2 | -2.0
Cc1cc(N2CCN(C)CC2)nc(N2CCOCC2)n1 | -1.3% | 9 | -39 | 7 | 24% | 9 | -4.0
N#Cc1nc(-c2ccccc2Cl)oc1NCc1ccco1 | 0.8%[38.3 µM] | -13 | -4 | -13 | -13% | -13 | -3.6
O=C(Nc1ccc2c(c1)CCC2)c1c(F)cccc1Cl | 0.3% | -10 | -1 | 2 | -1% | 4 | -1.6
CCCCC1CCC(C(=O)N(CCCC)c2c(N)n(CCCC)c(=O)[nH]c2=O)CC1 (stereo not given) | -1.2% | 1 | -18 | 0 | 7% | -12 | -3.5
Nn1c(SCC(=O)Nc2cccc(Br)c2)nnc1C1CC1 | 1.6% | . | -5 | . | . | -4 | 0.0
O=C1CC(N2CCN(CCc3ccccn3)CC2)C(=O)N1c1ccc(Cl)cc1 (stereo not given) | -0.9% | . | -33 | 0 | -6% | 4 | -1.7
Cc1ccc(C)c(NC(=O)CCN2C(=O)[C@@H]3Cc4ccccc4CN3C2=O)c1 | -0.1% | -11 | -6 | 3 | 1% | 7 | -1.4
Cc1ccc(NC(=O)CCNS(=O)(=O)c2ccc3[nH]c(=O)oc3c2)cc1N(C)C | -0.9% | -7 | -1 | 3 | 25% | 3 | -2.2
O=C(CCNS(=O)(=O)c1ccc(Br)cc1)NCCc1ccc(Cl)cc1 | 1.3% | 17 | -10 | 1 | 14% | -3 | 1.8
Cc1ccsc1C(=O)OCC(=O)Nc1cccc(F)c1 | 4.0% | -11 | -1 | -1 | . | -4 | -3.5
NC(=O)c1ccc(-n2nnnc2SCC(=O)Nc2ccccc2)cc1 | 3.4% | -5 | 6 | . | 15% | -2 | -3.1
COc1ccc(-c2csc(NC(=O)CCCc3nc4ccccc4c(=O)[nH]3)n2)cc1OC | 3.2% | -3 | 2 | -26 | . | -16 | -1.4
CC(Oc1ccc(Cl)cc1Cl)C(=O)NCCCn1ccnc1 (stereo not given) | 1.1% | -1 | -7 | 0 | 14% | -1 | -1.8
CCN(CC)CCn1c(C)nc2ccccc21 | -3.7% | -30 | -2 | -10 | -5% | 11 | 0.0
CC(OC(=O)c1ccncc1)C(=O)Nc1cccc([N+](=O)[O-])c1 (stereo not given) | 3.7% | 1 | -2 | 8 | 0% | 11 | -0.2
CSc1ccc(/C=N/n2c(C)nc3ccccc3c2=O)cc1 | 1.5% | -14 | -6 | . | 14% | 8 | 0.7
Cc1nn(Cc2ccc(Cl)cc2Cl)c(C)c1NC(=O)c1sc2ccccc2c1Cl | 9.7% | -2 | 9 | -1 | 2% | 2 | 0.8
Cc1ccc(S(=O)(=O)N2CCCN(C(=O)c3cc4ccccc4[nH]3)CC2)cc1 | -0.5% | -3 | -27 | 0 | 8% | -4 | 0.0
CCOC(=O)c1c(C)oc2c1c1c(c3ccccc32)OCN(Cc2cccnc2)C1 | 3.5% | . | 113* | -8 | ? | -7 | ?
Cc1ccc(/C=C/C(=O)OCC(=O)NCc2ccccc2)o1 | 4.7% | -22 | 7 | 0 | . | -3 | -3.6
COc1ccc(CCNC(=S)N2CCN(S(=O)(=O)c3ccc(F)cc3)CC2)cc1 | 7.3% | 20 | 24 | 5 | . | 4 | 1.4
CC1=NC(C)(C)CC2CCC(O)C12 (stereo not given) | 1.8% | . | 2 | 1 | . | 0 | 2.1
O=C1Nc2ccccc2C1=Nc1ccc(-c2nnc3n2CCCCC3)cc1 | 1.2%&-1.0% | -2 | -12&-9 | 6&-2 | 6% | 2&11 | -4.0&-8.7

Quoted from the listing for reference:
SMILES | PINK1 modulator | TRPV1 PAM | D2 PAM | CtBP-E1A inh | Sfp inh | Six1-Eya2 inh | D2 agonist
COC(=O)c1cc(OC)c(OC)cc1NC(=O)c1cc(C(C)(C)C)oc1C | 3.2% | -3 | -2 | 18 | 15% | -2 | -4.5
COc1ccc(-n2nc3c(c2NC(=O)c2ccc(S(=O)(=O)N4CCOCC4)cc2)CS(=O)(=O)C3)cc1 | 1.7% | -4 | -3 | 0 | 14% | 2 | -2.0

The listing picks up, starting 3 compounds before the break.
SMILES | PINK1 modulator | TRPV1 PAM | D2 PAM | CtBP-E1A inh | Sfp inh | Six1-Eya2 inh | D2 agonist
COc1ccc(CCNC(=S)N2CCN(S(=O)(=O)c3ccc(F)cc3)CC2)cc1 | 7.3% | 20 | 24 | 5 | . | 4 | 1.4
CC1=NC(C)(C)CC2CCC(O)C12 (stereo not given) | 1.8% | . | 2 | 1 | . | 0 | 2.1
O=C1Nc2ccccc2C1=Nc1ccc(-c2nnc3n2CCCCC3)cc1 | 1.2%&-1.0% | -2 | -12&-9 | 6&-2 | 6% | 2&11 | -4.0&-8.7
CCOCCCNC(=O)/C(C#N)=C/c1cc(Br)c(O)c(Br)c1 | 1.5% | 13 | 9 | 17 | 12% | -4 | -2.3
COc1ccc(O)c(CN2CCCC(N3CCN(c4ccc(F)cc4)CC3)C2)c1 (stereo not given) | 1.1% | 0 | -1 | -15 | 10% | -29 | -0.4
CC(=O)NCc1ccc(S(=O)(=O)N2CCN(c3ccccn3)CC2)cc1 | 1.9% | -6 | 0 | 0 | 8% | 11 | -2.6
Cc1ncoc1C(=O)N1CCc2c([nH]c3ccccc23)C1c1ccccc1F (stereo not given) | 0.7% | -1 | -4 | -1 | 2% | -4 | 2.2
Cc1ccc(C(C(=O)NCC2CCCO2)N(C(=O)c2snc(C(N)=O)c2N)c2ccc3c(c2)OCCO3)cc1 (stereo not given) | 2.0% | -2 | -4 | 0 | 5% | 0 | -1.7
Cc1ccc(-c2nnn(CC(=O)N(c3ccc(F)cc3)C(C(=O)NC3CCCC3)c3ccco3)n2)o1 (stereo not given) | 11%[38.3 µM] | 4 | 9 | 10 | 13% | 2 | -2.3
COCCC(=O)N1CCC(Oc2ccc(C(=O)NCc3ncc(C)[nH]3)cc2)CC1 | 0.4% | 8 | -2 | 0 | 4% | 8 | -1.8
COCC(=O)N(Cc1cc2ccc(C)c(C)c2n2nnnc12)C1CCCC1 | 1.4% | 5 | -3 | 0 | 4% | 3 | 0.9
CCCCCCn1cc(CN2CC(N3CCSCC3)CS2(=O)=O)nn1 (stereo not given) | -1.2% | . | . | 3 | . | -7 | .
Cc1cc(SCC(=O)NN)c2cc(Br)ccc2n1 | -3.2% | -9 | -3 | -19 | 22µM* | -29 | -4.0
COc1ccc(C(C#N)Nc2ccccc2OC)cc1 (stereo not given) | 1.5% | 28 | 1 | 13 | 11% | 2 | -6.8
COc1ccc(-c2csc3nc[nH]c(=O)c23)cc1 | -0.5% | -7 | -4 | . | 22% | -3 | 2.3
CCc1nc(SCC(=O)N2CCCCCC2)c2c(=O)n(C)c(=O)n(C)c2n1 | 0.2% | -1 | -7 | -12 | -14% | -2 | 1.9
CC(C)CCNC(=O)CCn1c(=S)oc2ccccc21 | 1.6% | -5 | -7 | 2 | 13% | 9 | -4.7
COc1ccc(C(Nc2ccccn2)c2c(NC(=O)c3ccco3)sc(C)c2C)cc1 (stereo not given) | 0.4% | 11 | -2 | . | 14% | -8 | -5.6
CC(C)N1CCC1(C)C(=O)Nc1ccc(-n2cccc2)cc1 (stereo not given) | 2.1% | . | -4 | -23 | . | ? | -4.0
CC(C)OC(=O)C1C(=O)CC(C)(O)C(C(=O)OC(C)C)C1c1cccc(O)c1 (stereo not given) | 5.2%[38.3 µM] | -5 | -3 | 8 | 11% | 4 | -3.5
CCCCCn1c(=O)c2ccccc2n2c(CCl)nnc12 | -1.9% | -9 | -22 | -17 | 13% | 19 | -3.3
NC(=O)c1cc2cc(Cl)ccc2o/c1=N/NC(=O)c1cccs1 | ? | 6 | -1 | ? | 3% | ? | 5.7
CN(C)S(=O)(=O)c1ccc(NC(=O)CSc2ncnc3ccccc23)cc1 | -2.8% | 0 | -1 | -11 | 6% | -13 | -0.8
CCOc1ccc(NC(=O)c2ccc(N3CC4CC(C3)c3cccc(=O)n3C4)c(NC(=O)CCN3CCOCC3)c2)cc1 (stereo not given) | -1.5% | -8 | -4 | -2 | 9% | -4 | -0.8
O=C(Nc1cccc2ccccc12)C12CC3CC(C1)CC(n1cnc([N+](=O)[O-])n1)(C3)C2 | -1.1% | 9 | -9 | -4 | 4% | 13 | -1.5
C[C@]12C=CC(=O)C=C1CC[C@@H]1C2C(O)C[C@@]2(C)C1CC[C@]2(O)C(=O)COC(=O)CCC(=O)NC(CC(=O)O)C(=O)O (stereo not given in full) | 1.2% | 7 | -3 | . | 23% | 4 | 3.3
O=C(Nc1ccc(F)c(F)c1)c1ccccc1 | 1.1% | -8 | -6 | . | . | -2 | 2.2
O=C(O)Cc1ccc(NS(=O)(=O)c2ccccc2Br)cc1 | 0.6% | 2 | -4 | . | -12% | 4 | -3.3
Cc1cc2c(NC(=O)CC(C)(C)CC(=O)O)cccc2nn1 | 0.7% | 1 | -2 | . | -9% | -1 | 2.8
Cc1cc([N+](=O)[O-])ccc1NC(=O)CSc1nncn1-c1ccccn1 | 0.6% | -1 | 0 | 12 | -9% | -1 | 0.2
COc1ccc(C2/C(=C(/O)c3ccccc3)C(=O)C(=O)N2C)cc1OC (stereo not given) | -0.5% | -16 | 3 | . | 0% | 3 | 0.1
CCOc1ccc(-n2c(O)c(/C=N/Nc3nnc(C)c(=O)[nH]3)c3ccccc3c2=O)cc1 | -1.4% | 9 | -7 | -93* | ? | -94* | 2.6
O=C(COC(=O)c1ccccn1)Nc1ncc(C(F)(F)F)cc1Cl | 3.4% | 4 | 2 | -6 | -26% | -5 | -1.4

Bioassay records: PubChem BioAssay, National Center for Advancing Translational Sciences (NCATS)
